H5N1 antiviral: MDCK cell protection from H5N1 avian flu | cytopathic effect, luminescence, 72 h; hits give high values; no value below 0 was filed and about half of the inactive calls have no number; reference of the scale not given here | inhibition, % at 50 µM | hit rate 0.07% among 96,000; in the data active = inhibition above about 25%
* marks the source's active call; other numbers are inactive results; i = inactive; & = joins results of further samples.

SMILES	H5N1 antiviral
O=C(CSc1nc(-c2ccccc2)nc2c1Cc1ccccc1O2)Nc1ccccc1	i
COc1ccc(CCNC(=O)CN(c2ccc(OC)c(OC)c2)S(C)(=O)=O)cc1	i
OC1(c2ccc(F)cc2)CC2CCC(C1)N2Cc1nnnn1C1CCCC1 (stereo unspecified)	i
COC(=O)Cn1c(CN2CCN(c3ccc(F)cc3)CC2)nc2c1c(=O)n(C)c(=O)n2C	1.6
COCCNc1oc(-c2ccc(F)cc2)nc1C#N	i
COc1ccccc1C1CN=NC12CCCc1ccccc1C2=O (stereo unspecified)	0.9
O=C(CSCc1cccc(Cl)c1)NCc1ccc2c(c1)OCO2	i
c1ccc(CCNc2ncnc3scc(C4COc5ccccc5O4)c23)cc1 (stereo unspecified)	i
c1ccc(CNc2ncnc3nc[nH]c23)nc1	2.5
CS(=O)(=O)N1CCN(C(=O)c2cccnc2)CC1	i
CCOC(=O)c1c(-c2ccc(C)o2)csc1NC(=O)COC(=O)c1ccc(NC(N)=O)cc1	i
Cc1cccc(NC(=O)c2cnc3scc(C)n3c2=O)c1	1.3
O=C(NCc1ccc2c(c1)OCO2)c1ccc2c(c1)C(=O)N(Cc1cccnc1)C2=O	1.2
C/C=C/C(=O)Nc1ccccc1Br	i
Cc1ccc(S(=O)(=O)N2CCN(S(=O)(=O)N3CCCCC3)CC2)c(C)c1	0.5
CC(C)CCOc1ccc(-c2c(=O)n(OCc3ccc([N+](=O)[O-])cc3)c3ccccc3[n+]2[O-])cc1	0.1
Cc1nc(C(=O)Nc2cccc(Cl)c2Cl)nn1-c1cc(OC(C)C)c(Cl)cc1Cl	i
Cc1ccc2[nH]c3c(=O)n(CCCN4CCOCC4)cnc3c2c1	0.2
O=C1OC(Nc2ccc3c(c2)OCO3)c2ccccc21 (stereo unspecified)	2.6
COc1ccc(CCNC(=O)c2ccccc2NC(=O)c2ccco2)cc1OC	i
CCc1ccc2c(c1)cc(CN(C(=S)Nc1ccccc1C)C1CC1)c1nnnn12	0.1
O=C(CN1CCC(n2nnc3ccccc32)CC1)Nc1ccc2c(c1)CCC2	i
CCOC(=O)CSc1nc2c(c(=O)n1-c1ccc(OCC)cc1)SCC2	i
O=C(CNc1cccc2ccccc12)N/N=C/C(Br)=C/c1ccccc1	i
COc1ccc(OC)c(S(=O)(=O)n2cccn2)c1	i
Cc1ccc(-c2oc3ccccc3c(=O)c2O)cc1	1.6
CCOC(=O)c1c(NC(=O)CSc2ncn[nH]2)sc(C)c1C	3.7
N#Cc1nc(-c2ccc(OCc3ccc(Cl)cc3)cc2)oc1NCCCn1ccnc1	i
Cc1ccc2c(c1Br)/C(=N/N1C(=O)c3ccccc3C1=O)C(=O)N2	0.8
CCc1ccc(S(=O)(=O)NCc2cn3cccc(C)c3n2)s1	0.7
CCOC(=O)CC1(C)NC(=O)c2c(C)sc(C(=O)OCC)c2N1 (stereo unspecified)	i
O=C(CSc1nnc(-c2ccco2)o1)NCC(=O)c1ccccc1	i
COc1ccc(NC(=O)CCCN2C(=O)CCC2=O)cc1Cl	i
Cc1sc(NC(=O)COc2cccc(-n3cnnn3)c2)c(C#N)c1C	i
CC1CCN(C(=O)COC(=O)c2cc(Cl)cc(Cl)c2N)CC1	0.4
O/N=C1/CCc2cccc3cccc1c23	0.6
Cc1cccc(-c2nc(CS(=O)CC(=O)N3CCCCC3)c(C)o2)c1 (stereo unspecified)	0.5
CCN(CC)c1cccc(OC2=NS(=O)(=O)c3ccccc32)c1	1.2
C/C(=N\NS(=O)(=O)c1ccc(Cl)cc1)c1ccc(O)cc1	1.0
CCN(Cc1ccccc1)C(c1ccc(C)cc1)c1nnnn1C(C)(C)CC (stereo unspecified)	0.4
O=C(CSc1nnc(-c2ccc(F)cc2)o1)Nc1ccc(S(=O)(=O)N2CCCCCC2)cc1	0.3
CNc1c([N+](=O)[O-])cnn1-c1ccccc1Cl	0.5
COc1ccc(CN2CCC(C(=O)N(C)CCc3ccc(OC)c(OC)c3)CC2)c(OC)c1	i
CCCCCCCCCCn1cc(C(C)=O)c(=O)[nH]c1=O	0.2
O=C1CCCC2=C1C(c1cccnc1)Nc1ccccc1N2 (stereo unspecified)	0.9
O=C(Nc1ccccc1)C1CCN(c2nccs2)CC1	i
COc1ccc(CC(=O)N2CCN(c3ccccn3)CC2)cc1OC	i
Cc1nc2c(C(=O)NCc3ccc4c(c3)OCO4)c[nH]n2c(=O)c1Cc1ccccc1F	i
COCCNC(=O)C(C)OC(=O)c1cc2sccc2n1C (stereo unspecified)	0.9
COc1ccc2oc(=O)c(C(=O)N3CCN(c4ccc(F)cc4)CC3)cc2c1	i

16 entries from above, sorted by SMILES length, falling.
SMILES	H5N1 antiviral
CC(C)CCOc1ccc(-c2c(=O)n(OCc3ccc([N+](=O)[O-])cc3)c3ccccc3[n+]2[O-])cc1	0.1
O=C(NCc1ccc2c(c1)OCO2)c1ccc2c(c1)C(=O)N(Cc1cccnc1)C2=O	1.2
Cc1nc(C(=O)Nc2cccc(Cl)c2Cl)nn1-c1cc(OC(C)C)c(Cl)cc1Cl	i
Cc1ccc(S(=O)(=O)N2CCN(S(=O)(=O)N3CCCCC3)CC2)c(C)c1	0.5
COc1ccc2oc(=O)c(C(=O)N3CCN(c4ccc(F)cc4)CC3)cc2c1	i
O=C(CN1CCC(n2nnc3ccccc32)CC1)Nc1ccc2c(c1)CCC2	i
c1ccc(CCNc2ncnc3scc(C4COc5ccccc5O4)c23)cc1 (stereo unspecified)	i
C/C(=N\NS(=O)(=O)c1ccc(Cl)cc1)c1ccc(O)cc1	1.0
CC1CCN(C(=O)COC(=O)c2cc(Cl)cc(Cl)c2N)CC1	0.4
O=C(CSc1nnc(-c2ccco2)o1)NCC(=O)c1ccccc1	i
COc1ccc(CC(=O)N2CCN(c3ccccn3)CC2)cc1OC	i
COc1ccc(NC(=O)CCCN2C(=O)CCC2=O)cc1Cl	i
CCCCCCCCCCn1cc(C(C)=O)c(=O)[nH]c1=O	0.2
CS(=O)(=O)N1CCN(C(=O)c2cccnc2)CC1	i
Cc1ccc(-c2oc3ccccc3c(=O)c2O)cc1	1.6
C/C=C/C(=O)Nc1ccccc1Br	i

2 entries drawn at random from the list so far:
SMILES	H5N1 antiviral
COc1ccc(CN2CCC(C(=O)N(C)CCc3ccc(OC)c(OC)c3)CC2)c(OC)c1	i
CNc1c([N+](=O)[O-])cnn1-c1ccccc1Cl	0.5

Remaining list, next part
SMILES	H5N1 antiviral
CC1=C(C(=O)N2CCOCC2)C(c2ccccc2F)C2=C(CC(C)(C)CC2=O)N1 (stereo unspecified)	i
O=C(c1ccccc1)N1CCN(C2CC3CCC2C3)CC1 (stereo unspecified)	0.5
C/C(Nc1cccc(F)c1)=C(/C#N)C(N)=O	i
Cc1nc(CS(=O)(=O)c2ccccc2)cc(N2CCOCC2)n1	0.6
CC(=O)Nc1ccc(S(=O)(=O)N2CCN=C2C)cc1	0.8
COc1ccc(S(=O)(=O)NCCc2ccc(F)cc2)cc1	1.5
Cc1ccc(N(CC(=O)NCc2ccc(F)cc2)S(=O)(=O)c2cccs2)cc1	i
CCCOc1ccccc1C(=O)NCCCC(=O)O	i
Fc1cccc(C2NC(=S)NC3=C2N2CCC3CC2)c1 (stereo unspecified)	1.2
Cc1cc(NC(=O)COC(=O)C2CCCN2C(=O)c2cccs2)no1 (stereo unspecified)	i
COc1ccc(OC)c2c(N3CC(C)OC(C)C3)cc(C(F)(F)F)nc12 (stereo unspecified)	0.4
Cc1cc(NC(=O)c2ccc(Cn3nc(C)c(Br)c3C)o2)no1	i
O=C(NCc1ccc2c(c1)OCO2)c1cc2c(s1)CS(=O)(=O)C2	i
O=C(c1ccccc1)c1ccc(N2CCOCC2)c(F)c1	0.7
CCOC(=O)Nc1cc(OCC)c(NC(=O)C2CC2)cc1OCC	i
O=S(=O)(c1ccccc1F)N1CCN(Cc2nc3ccccc3[nH]2)CC1	0.6
CC(=O)Nc1ccc(S(=O)(=O)NCC2CCC(C(=O)N3CCCCCC3)CC2)cc1 (stereo unspecified)	1.6
Cc1ccc(-c2noc(CN3CCN(C(c4ccccc4)c4ccccc4)CC3)n2)cc1	1.4
N#CC12C(N)=NC3(OCCO3)C1(C#N)C1=C(CCC1)NC2c1ccccc1 (stereo unspecified)	i
O=C(O)C1C2C=CC(O2)C1C(=O)NC1CCCc2ccccc21 (stereo unspecified)	0.0
CN(Cc1cc2ccccc2[nH]c1=O)S(C)(=O)=O	1.9
CCN1CCN(S(=O)(=O)c2cc(C)c(OC)cc2C)CC1	0.8
O=C(CN1CCN(c2ccccn2)CC1)Nc1ccc2ccccc2c1	i
CC(=O)Nc1ccc(N2CCOCC2)c(C(=O)Nc2cccc(C)c2)c1	0.9
NC1=NC(c2cn(-c3ccccc3)nc2-c2cccs2)n2c(nc3ccccc32)N1 (stereo unspecified)	i
O=C(Nc1cccc(Cl)c1)OCc1cncs1	0.9
O=C1N2CCSC2=NC1(Nc1ccccn1)C(F)(F)F (stereo unspecified)	0.2
CC(C)CC(=O)Nc1ncnc2c1C(=O)CC(C)(C)C2	1.1
O=C(Cn1cnc2ccccc21)NCCCN1CCOCC1	i
CCCNS(=O)(=O)c1ccc(OCC(=O)Nc2ccc3c(c2)OCCO3)cc1	i
CCn1cc(C(=O)N2CCn3c(nc4ccccc43)C2)c(=O)c2ccc(C)nc21	0.8
CCSc1nnc(-c2cccnc2)n1Cc1ccco1	0.2
Nn1c(SCc2cccc3ccccc23)nnc1-c1ccco1	i
COc1cc(Cl)ccc1S(=O)(=O)n1nc(C)cc1C	1.1
O=[N+]([O-])c1cc(Cl)ccc1NCCNc1ncc(C(F)(F)F)cc1Cl	i
CCOc1nc(C)ccc1-c1noc(-c2ccccc2OC)n1	i
O=C(c1ccco1)N(Cc1ccco1)c1ccc(O)cc1	1.7
CCOC(=O)/C(=N/Nc1ccc(Cl)cc1)S(=O)(=O)c1ccc(Cl)cc1	i
Cn1c(CCN2CCCCC2)nc2cc(NC(=O)Nc3ccccc3)ccc21	0.0
COc1ccccc1N1CCN(CC(=O)Nc2c(C)n[nH]c2C)CC1	i
O=C(NCc1ccccc1)c1c(O)c2cccc3c2n(c1=O)CCC3	0.8
Cn1c(CN2CCN(c3ccc(Cl)cc3)CC2)nc2ccccc21	i
Nc1ccccc1C(=O)OCC(=O)N1CCc2ccccc21	i
COc1ccc(Cl)cc1NC(=O)CSc1nnc(CN2CCOCC2)n1-c1ccc(Cl)cc1	0.4
COc1ccccc1C(=O)C(O)c1ccccc1OC (stereo unspecified)	0.8
CC(=O)NCCNC(=O)[C@H](Cc1ccccc1)NC(=O)c1cccs1	0.6
COC(=O)c1ccccc1NC(=O)c1cccc(NC(=O)c2ccc(Br)o2)c1C	i
COc1ccc(OCc2nc(N)nc(Nc3ccccc3)n2)cc1	i
COc1ccc(CCNc2oc(COc3ccccc3F)nc2C#N)cc1	i
CC1(C)Cc2ccccc2-c2nnc(SCC(=O)Nc3ccc4c(c3)OCO4)n21	0.6
More records:
SMILES	H5N1 antiviral
NC(=O)CSCc1c(Cl)cccc1Cl	0.2
COc1cc2[nH]c(=S)n(Cc3ccco3)c(=O)c2cc1OC	i
CCCS(=O)(=O)c1c(S(=O)(=O)CCC)c2ccccn2c1C(=O)OC	0.3
c1ccc(-n2nnnc2SCc2ccccn2)cc1	i
NC(=O)C(c1ccc(Cl)cc1)c1ccc(Sc2ccccc2)nn1 (stereo unspecified)	i
CCc1nc2c(cnn2-c2ccc(Cl)cc2)c(=O)n1-c1ccc(OC)cc1	i
CCN(CC)S(=O)(=O)c1cccc(NC(=O)C2SC(=Nc3ccc(C)cc3C)C(C(=O)NCC3CCCO3)=C2N)c1 (stereo unspecified)	i
CC(C)COC(=O)c1ccc(NC(=O)C2C3C=CC(C3)C2C(=O)O)cc1 (stereo unspecified)	i
Cc1ccccc1OCCN=Cc1c(O)n(C)c(=O)n(C)c1=O	i
Cc1ccc(C(CC(=O)O)C2CCOC(C)(C)C2)cc1 (stereo unspecified)	0.6
CCOC(=O)c1c(C)n(Cc2ccco2)c2ccc(OC)cc12	0.0
COc1ccc(-n2c(Cn3nnc4ccccc43)nnc2SCC(=O)O)cc1	1.8
NC(=O)C1CCN(C(=O)COc2cccc3ccccc23)CC1	0.2
CC1(C(=O)NCc2ccccc2)Oc2ccccc2NC1=O (stereo unspecified)	0.7
Cn1c(CO)cnc1SCc1c(Cl)cccc1Cl	1.6
CN(C)CCOC(=O)C1(c2ccccc2)CCOCC1	1.6&5.6
Cc1ccc2nc3c(cc(C(=O)NCC4CCCO4)c(=N)n3CCCOC(C)C)c(=O)n2c1 (stereo unspecified)	0.8
O=C(O)c1cnn(-c2ccccc2)c1-n1cccc1	0.0
Cc1ccc(C)c(NC(=O)CSc2nnc(-c3ccccc3)o2)c1	0.8
CCC(CC)C(=O)NCCc1cc2ccc(C)cc2[nH]c1=O	0.3
CCOC(=O)c1[nH]c2ccc(C)cc2c1N	i
Cc1ccc(C(=S)NCS(=O)(=O)c2ccc(C)cc2)cc1	i
Cc1c(C(=O)OCC(=O)c2c(N)n(CC(C)C)c(=O)n(C)c2=O)oc2ccccc12	4.7
CCCCS(=O)(=O)c1sc2nc3c(cc2c1N)CCCC3	1.0
COc1ccc(NC(=O)c2ccco2)c(NC(=O)Cc2cccs2)c1	i
CN(C)CCc1nc2ccccc2c(=O)n1-c1ccccc1	i
CNC(=O)c1nn(-c2ccc(Cl)cc2)ccc1=O	0.4
O=C(c1ccc(Br)cc1)c1cc(-c2ccccn2)c(N2CCOCC2)s1	0.7
Cc1nc(-c2ccccc2)cc(N2CCCC2)n1	0.2
CCOC(=O)c1cnc(-n2nc(C)cc2C)nc1N(CC)CC	0.8
Cn1c(=O)c2c(ncn2CC(COCc2ccccc2Cl)OCc2ccccc2Cl)n(C)c1=O (stereo unspecified)	2.7
Cc1ccc(/C=N/n2nnnc2N)o1	0.1
CN1C(=O)N(c2ccccc2)C(Nc2nncs2)C1(C)C (stereo unspecified)	0.6
O=C(Nc1ccccc1-c1nc2ccccc2s1)c1cccnc1Cl	0.2
COc1cc(/C=N/NC(=O)CNC(=O)c2ccc3c(c2)OCCO3)ccc1O	0.1
Cc1ccc(S(=O)(=O)NC(=O)Nc2cc(C)ccc2F)cc1	0.8
CCCCN(CCCC)S(=O)(=O)c1ccc(NS(=O)(=O)c2ccc(NC(C)=O)cc2)cc1	i
COC(=O)c1cc2occc2n1CC(=O)Nc1ccc(OC)c(OC)c1OC	1.2
CCOc1ccc(NS(=O)(=O)c2ccc(NC(=S)NC(=O)CC(C)C)cc2)cc1	i
COc1nnc(-c2ccc(N3CCCCC3)c(NC(C)=O)c2)c2ccccc12	4.8
O=C(CSc1ccc2nnc(-c3ccncc3)n2n1)Nc1ccccc1F	1.3

Compound activity from PubChem.

This is a subset; rates above refer to the full screens.
